From PubChem
miR-21 reporter = miR-21 reporter, rising signal | HeLa miR-21 FLuc reporter, luciferase, 48 h | Potency, µM (top dose mostly 38.3 µM), for the others: at the top dose reporter change, positive = more light | 340,000 tested, under 10 active | AID 2288; active = well fitted rising curve with a large enough effect; inconclusive = small, poorly fitted or top-dose-only effect; inactive = no such curve, though single readings can be large or run the other way;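 further: % of control where 0% means no effect; miR-21 action dims this reporter so a rising signal means less miR-21 action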
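HeLa cells endogenously expressing miR-21, stably carrying CMV-driven firefly luciferase with a downstream miR-21 binding site, 2000 cells/well. Titrations up to approximately 40 uM, 48 hours; luciferase luminescence read.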
Rango release inh = inhibitors of RanGTP-induced Rango-importin beta complex dissociation; AID 540253; O95149+P62826; actives 0.071% (n = 340,000); Biochemical FRET Rango-importin beta, RanGTP-induced dissociation; Potency, µM (highest dose often 46.1 µM), without a hit: at the top dose activity change, negative = inhibition; active means falling FRET ratio curve, often poorly fitted, with flat reads before Ran was added; inconclusive means other falling curves, or compound fluorescence or quenching; inactive means flat or rising ratio curve;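 further: potency means the concentration at half of the fitted maximal effect; % of control where 0% means no effect; nearly all actives have a fitted effect of over 45% in size; -100% = wells without RanGTP and RCC1; the record marks most hits as doubtful in a second field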
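Rango FRET biosensor (snurportin-1 IBB flanked by N-terminal EYFP and C-terminal CFP10) at 0.1 uM, with 0.25 uM importin beta in PBS, 1mM DTT, 0.02% Tween-20, 0.1% BSA. 0.6 uM Ran, 2mM GTP and 0.2 uM RCC1 were then added for 45 min at room temperature. Inhibition read as loss of FRET rise.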
GLA inh pH 4.5 = inhibitors of human alpha-galactosidase A at pH 4.5. activity change, negative = inhibition, % at 105 µM. P06280. AID 1467. 230,000 tested, under 10 active. purified enzyme, 4-MU-alpha-Gal fluorescence, pH 4.5; inconclusive = small, poorly fitted or top-dose-only inhibition, or a rising curve; inactive = flat fitted curve, though single readings scatter; no compound was filed as active;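 further: 0% = full activity with enzyme and -100% = basal without enzyme; dose as in the result columns while the protocol names 77 µM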
Target sequence (P06280 whole entry, looked up): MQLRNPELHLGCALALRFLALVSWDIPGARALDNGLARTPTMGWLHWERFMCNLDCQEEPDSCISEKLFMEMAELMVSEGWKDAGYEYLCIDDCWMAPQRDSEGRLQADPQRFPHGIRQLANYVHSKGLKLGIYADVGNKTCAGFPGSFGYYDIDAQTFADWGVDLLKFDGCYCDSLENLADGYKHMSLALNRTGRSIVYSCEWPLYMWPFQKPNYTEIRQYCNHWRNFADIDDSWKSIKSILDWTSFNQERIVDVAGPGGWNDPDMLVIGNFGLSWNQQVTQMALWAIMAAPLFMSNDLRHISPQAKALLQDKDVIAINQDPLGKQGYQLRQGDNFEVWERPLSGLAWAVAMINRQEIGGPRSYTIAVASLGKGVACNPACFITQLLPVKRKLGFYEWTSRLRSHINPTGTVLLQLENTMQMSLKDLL
Rango-impB inh = Rango-importin beta binding inhibition. Potency, µM (top dose mostly 92.2 µM), for the others: at the top dose inhibition of complex formation. Rango CFP/YFP FRET sensor + importin beta, 45 min. actives 0.031% (n = 340,000). Q14974; active = rising FRET ratio curve, often small or poorly fitted; inconclusive = mostly compound fluorescence or quenching in the first reads; inactive = flat curves in all reads;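 further: potency means the concentration at half of the fitted maximal effect; 0% = DMSO wells and 100% = buffer wells lacking importin beta; nearly all actives have a fitted effect of over 15% in size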
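Inhibition scored from the CFP 486 nm/YFP 530 nm FRET ratio 45 min after adding 0.125 microM importin beta to 50 nM Rango biosensor preincubated 5 min with compound (room temperature, PBS with DTT, Tween-20, BSA). No-importin wells as positive control.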
Active calls of the source: *; ? = inconclusive; · = no result given; & = joins results of further samples; [ ] = remark or other dose. These rows are one share of the data, so the mix of outcomes need not match the whole.

SMILES	miR-21 reporter	Rango release inh	GLA inh pH 4.5	Rango-impB inh
COc1ccc(-n2c(=O)c3ccccc3n(Cc3ccc(F)cc3)c2=O)cc1OC	3%	-5%	-1	0.8%
CCOC(=O)N1CCN(C(=O)C2CCN(S(=O)(=O)c3ccc(OCC)cc3)CC2)CC1	2%	-8%	·	0.2%
Oc1c(C=C2N=c3ccccc3=N2)sc(=S)n1-c1ccc(F)cc1	-3%&10%	-9%&0%	2&-6	-2.1%&-0.5%
CCN1CCN(c2ccc(S(=O)(=O)N3CCOCC3)cc2NC(=O)CCSC)CC1	·	0%	·	0.1%
O=C1CC(c2ccc(F)cc2)SC(N(c2ccccc2)c2ccccc2)=N1 (configuration not stated)	-9%	-9%	-5	4.2%
CC(C)Oc1ccc(CCC(=O)NNC(=S)NCc2ccccc2)cc1	3%	8%	-6	3.0%
COc1ccc(-c2csc(NC(=O)CSCC(=O)Nc3cc(C)on3)n2)cc1	·	6%	·	-0.5%
CCOC(=O)[C@H]1[C@H]2COc3ccc(Cl)cc3[C@@H]2N2C(=O)c3cc(F)c(F)cc3NC(=O)[C@@]12C	·	-17%	·	-1.6%
O=c1cc(CO)occ1OCc1ccccc1	-6%	1%	3	-4.5%
COC(=O)/C=C\C(=O)Nc1cccc([N+](=O)[O-])c1	?	-4%	-4	-1.1%
O=C(C1CC(=O)N(C2CCCC2)C1)N1CCC(Cc2ccccc2)CC1 (configuration not stated)	1%	?	3	3.8%
Cn1c(/C(C#N)=C(\O)c2ccc(Cl)s2)nc2ccccc21	-13%	-12%	·	0.2%
Cn1c(=O)c(-c2ccccc2)nc2ccccc21	-24%	-6%	9	0.4%
COc1ccc(C2Nc3ccccc3NC3=C2C(=O)CC(C)(C)C3)c(OC)c1OC (configuration not stated)	-4%	-2%	·	-2.4%
S=C(NCCc1ccccc1)N1CCOCC1	-30%	1%	·	3.4%
CON(C)S(=O)(=O)c1cccc(C(=O)Oc2ccc(N(C)S(=O)(=O)c3ccccc3)cc2)c1	8%	0%	·	1.2%
C=CCNC(=O)C1CC=CCC1C(=O)O (configuration not stated)	-6%	0%	1	0.2%
COc1cc2c(cc1OC)CN(C(=O)COc1ccccc1C#N)CC2	-9%	8%	·	-0.7%
Clc1ccc(-c2cn3c(n2)SCC3)cc1	-34%	14%	-4	1.3%
CCN(CC)C(=O)[C@H]1C[C@H](CC(=O)NCCCn2ccnc2)C(=O)N2CCc3c([nH]c4cc(-c5ccco5)ccc34)[C@]12C	·	8%	·	-0.1%
COc1ccc(Cn2nnc3c(=O)[nH]c(C(=O)NCCc4ccc(F)cc4)nc32)cc1OC	-31%	12%	5	2.6%
Cc1ccccc1-c1nc(SCc2cccnc2)c2c(=O)n(C)c(=O)n(C)c2n1	4%	13%	-3	-1.2%
Cc1ccc(-n2c(SCC(=O)Nc3cc(C)on3)nc3ccccc3c2=O)cc1	-12%	-6%	-5	-0.8%
O=C(O)c1ccccc1C(=O)N1CCN(c2ncccn2)CC1	-2%	12%	·	-1.4%
O=c1c(-c2ccc(O)cc2)coc2cc(O)ccc12	·	-5%	-8&-1&-3&-15&0	5.2%
The results go on.
SMILES	miR-21 reporter	Rango release inh	GLA inh pH 4.5	Rango-impB inh
CC(C)(C)C(=O)NN=C1CCC(c2ccccc2)CC1 (configuration not stated)	-9%	-11%	·	-1.5%
CN(C(=O)COC(=O)CN1C(=O)C2CC=CCC2C1=O)c1ccccc1 (configuration not stated)	·	-3%	·	?
COC(=O)c1ccc(C2C(C(=O)c3ccc(C)o3)=C(O)C(=O)N2c2cc(C)on2)cc1 (configuration not stated)	-9%	?	·	-1.8%
CC(C)C(=O)N1CCN(c2ccc(NC(=O)c3ccc([N+](=O)[O-])o3)cc2)CC1	-9%	1%	-13	0.5%
COc1ccc(CCN2C(=O)c3cccc4cccc(c34)C2=O)cc1OC	-4%	-8%	0	-0.3%
O=C1CSC(c2ccc(F)cc2)N1c1nnc(C23CC4CC(CC(C4)C2)C3)s1 (configuration not stated)	-2%	·	9	·
COc1c2occc2c(OC)c2c(=O)cc(C(F)(F)F)oc12	-2%	-1%	8	-1.3%
Cc1ccccc1NC(=O)NC1(C(=O)NCCCN2CCOCC2)CCCCC1	0%	-3%	-5	-1.0%
CCN(CCn1cccn1)C(=O)CC1C(=O)NCCN1Cc1cccc(OC)c1OC (configuration not stated)	1%	11%	-3	0.1%
CCOC(=O)/C(C#N)=C/c1cn(CCOc2ccccc2)c2ccccc12	-4%	-21%	-6	?
COc1cc(NC(=O)c2ccc(Br)o2)ccc1NC(=O)C(C)C	-25%	2%	9	-0.3%
O=C(C1CCCN(S(=O)(=O)c2ccccc2)C1)N1CCN(c2ccccc2)CC1 (configuration not stated)	7%	5%	·	6.2%
CC(C)(C)c1ccc(OCC(=O)N(Cc2cccs2)C2CCS(=O)(=O)C2)cc1 (configuration not stated)	0%	9%	·	-5.3%
O=C(NC1CCCCCC1)c1cc(=O)[nH]c2ccc(S(=O)(=O)N3CCOCC3)cc12	-2%	3%	2	-0.5%
COc1ccc(-n2c(SCC(=O)Nc3ccc([N+](=O)[O-])cc3OC)nc3ccccc32)cc1	-3%	14%	4	-1.5%
COc1ccc(NC(=O)CSc2n[nH]c(-c3ccccc3)n2)cc1S(N)(=O)=O	·	2%	·	-0.7%
O=C(CSc1nnc(CNC(=O)c2cccs2)o1)NC1CCCCC1	-4%	0%	-1	-2.3%
CC(C)N(C(=O)CSc1nnc(C2CC2)n1C1CC1)c1ccccc1	·	-3%	·	3.5%
CN(CC(=O)Nc1cccc(F)c1)C(=O)CCCn1c(=O)oc2ccccc21	·	-6%	·	0.0%
COc1ccc(-c2cn3cccnc3n2)cc1NC(=O)C(C)Oc1ccccc1 (configuration not stated)	-4%	0%	·	-1.1%
CCn1c(C(C)NC(C)=O)nc2ccccc21 (configuration not stated)	0%	-22%	1	1.2%
O=c1[nH]c(C2CCN(S(=O)(=O)c3ccccc3)CC2)nc2c1nnn2Cc1c(F)cccc1Cl	-1%	-1%	·	4.5%
O=C(Nc1ccc(OC(=O)c2ccncc2)cc1)c1ccncc1	1%	2%	0	0.4%
CCOC(=O)c1cc2c(=O)n3ccccc3nc2n(CCCOC)c1=NC(=O)c1cccnc1	0%	·	?	·
CCc1nnc(NC(=O)CSc2nnnn2C)s1	-10%	0%	-3	0.3%
(continued)
SMILES	miR-21 reporter	Rango release inh	GLA inh pH 4.5	Rango-impB inh
C=CCN1C(=O)c2ccccc2Sc2ccc(C(=O)NC(C)C)cc21	-5%	-6%	·	0.1%
Cc1ccc(Cl)cc1NC(=O)CSC(N)=O	-4%	3%	-3	-0.2%
O=C(COC(=O)c1ccccc1C(=O)c1ccccc1)Nc1cccc([N+](=O)[O-])c1	-11%	1%	9	-2.2%
O=C(O)CC1SC(=Nc2ccc(O)cc2)NC1=O (configuration not stated)	1%	10%	-3	0.1%
FC(F)(F)c1ccc(CN2C[C@@H]3C(c4ccccc4)C4(c5ccccc5)CC3(C4)[C@H]2c2ccccc2)cc1 (some centres not stated)	?	·	0&-2	·
COc1ccc(Cn2nnnc2CN2CCCCCC2)cc1	0%	-16%	4	-0.8%
Cn1c(CSc2nc3ccccc3s2)nnc1SCC(=O)NCc1cccnc1	·	-1%	·	2.2%
CCOC(=O)c1c(C)[nH]c2ccc(O)cc12	-20%	2%	-11	-0.3%
CCOC(=O)c1c(NC(=O)Nc2ccc(F)cc2)sc2c1CCN(C)C2	1%	1%	3	?
CC(C)(C)OC(=O)N[C@@H](Cc1ccccc1)C(=O)N[C@@H](CO)[C@H](O)[C@@H]1C[C@@H]1C(=O)NC1CC1	0%	-2%	·	-2.1%
COCCNc1nnc(SCC(=O)NNC(=O)c2ccco2)s1	·	-31%	·	3.6%
O=C(NCc1ccco1)C(c1ccc(F)cc1)N(Cc1cccnc1)C(=O)Cn1nnc2ccccc21 (configuration not stated)	1%	1%	3	1.0%
Cc1cc(C)cc(NC(=S)N(Cc2cccc(Br)c2)CC2CCC(C(=O)O)CC2)c1 (configuration not stated)	-3%	-1%	4[21.1 µM]	-0.1%
O=C(Nc1ccccc1N1CCCC1)c1ccc(F)c(S(=O)(=O)N2CCOCC2)c1	·	7%	·	-2.8%
Cc1cccc(-c2sc(Nc3ccccc3)n[n+]2-c2ccccc2)c1	·	30%	·	5.4%
CCOC(=O)c1ccc(CNC(=O)C(Cc2c[nH]c3ccccc23)NC(C)=O)o1 (configuration not stated)	-1%	-7%	-4	-0.5%
C=CCNC(=O)CC(=O)N/N=C/c1ccc(C(=O)OC)cc1	-4%	-2%	7	-1.8%
Cc1c(C(=O)N/N=C/c2ccc(-c3ccccc3[N+](=O)[O-])o2)sc(N)c1C#N	-36%	-10%	-15	-1.3%
CCCCNC(=O)C1CCCN1C(=O)Nc1ccccc1 (configuration not stated)	2%	13%	-1	-2.0%
CCN(CC)c1ccc(NC(=O)c2ccc(NC(=O)C3CCCO3)cc2)c(C)c1 (configuration not stated)	-3%	-18%	-2	1.4%
CC1CN(Cc2ccccc2)C(=S)NC1=O (configuration not stated)	·	0%	·	0.0%
NNC(=O)c1nnn(-c2nonc2N)c1CN1CCc2ccccc2C1	-19%	-21%	-4	?
Fc1ccc(-c2nnc3ccc(N4CCc5ccccc5C4)nn23)cc1	-8%	16%	-4	-0.6%
COc1ccccc1CNC(=O)c1cc2ccccc2oc1=O	-2%	2%	·	-1.8%
Cc1ccc(OCC(=O)Nc2ccc(-c3nnc(-c4ccco4)o3)cc2)cc1	-32%	0%	-7	0.4%

Record cards, from the list above.
`CCCCNC(=O)C1CCCN1C(=O)Nc1ccccc1` (configuration not stated) across the screens: miR-21 reporter: 2%; Rango release inh: 13%; GLA inh pH 4.5: -1; Rango-impB inh: -2.0%
`Cc1ccc(OCC(=O)Nc2ccc(-c3nnc(-c4ccco4)o3)cc2)cc1` across the screens: miR-21 reporter: -32%; Rango release inh: 0%; GLA inh pH 4.5: -7; Rango-impB inh: 0.4%

Back to the main list with the two entries that preceded the break.
SMILES	miR-21 reporter	Rango release inh	GLA inh pH 4.5	Rango-impB inh
COc1ccccc1CNC(=O)c1cc2ccccc2oc1=O	-2%	2%	·	-1.8%
Cc1ccc(OCC(=O)Nc2ccc(-c3nnc(-c4ccco4)o3)cc2)cc1	-32%	0%	-7	0.4%
COc1ccc(/C=N/NC(=O)c2ccc(Cl)c(S(N)(=O)=O)c2)cc1OCC(N)=O	0%	-4%	3	2.8%
CNC(=O)NC(=O)COc1ccc2oc3c(c2c1)CCCC3	-46%	13%	·	-4.6%
O=C(c1ccco1)N1CCN(S(=O)(=O)c2cccs2)CC1	-7%	-13%	1	3.0%
CCOc1ccc(CCNC(=O)COC(=O)c2cccc(S(=O)(=O)N3CCCCC3)c2)cc1OCC	·	14%	·	-2.8%
O=C(Nc1ccccc1N1CCOCC1)c1ccc2ccccc2n1	-30%	-9%	-12	-3.5%
CCOCCc1nnc(NC(=O)Cc2ccccc2)s1	-3%	-2%	1	2.0%
CC(C)NS(=O)(=O)c1ccc(NC(=O)CCc2ccccc2)cc1	-7%	8%	-15	-0.4%
Cc1cccc(NC(=S)N2CCCN(c3ncccc3[N+](=O)[O-])CC2)c1	0%	-1%	-4	0.3%
COc1ccc(C(=O)NN2C(=O)C3CCC(C)(C2=O)C3(C)C)cc1 (configuration not stated)	0%	0%	-6	3.0%
CCOC(=O)c1cnn(-c2ccccc2)c1-n1cccc1C(=O)C(=O)Nc1ccc(F)cc1	-7%	6%	-17	0.2%
CC(=O)Nc1ccc(NC2=C(Cl)C(=O)c3ccccc3C2=O)cc1	-34%	-5%	1	0.0%
COc1ccc(S(=O)(=O)N2CCc3ccccc32)cc1C(=O)NCCc1ccccn1	3%	19%	-2	-1.4%
Cc1cccc(-c2nnc3n2N=C(c2ccccc2)CS3)c1	8%	16%	-1	-0.5%
Cc1cc2c(c(=O)n1CCc1ccccc1)C(C(C)C)C(C#N)=C(N)O2 (configuration not stated)	-8%	-6%	9	3.9%
COCCSc1ccccc1C(=O)Nc1ccncc1	-4%	5%	0	10%
